# MEKK3 PB1 HTS = modulators (inhibitors or enhancers) of MEK5 binding to human MEKK3 PB1 domain; Q99759; bead-based flow cytometry, Alexa488-MEK5 binding to MEKK3; actives lie on both sides; 0 = blocked by unlabeled MEK5, 100 = vehicle; binding response (% of control), % at 10 µM; 290,000 tested, 1.4% active; AID 1529;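 active = binding response more than 3 SD above or below the average of its plate-row segment, actives on both sides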;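 also: Alexa488 bead fluorescence after subtracting the streptavidin-only scavenger bead signal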
# Target sequence (Q99759 whole entry, looked up, the tested form may be a part): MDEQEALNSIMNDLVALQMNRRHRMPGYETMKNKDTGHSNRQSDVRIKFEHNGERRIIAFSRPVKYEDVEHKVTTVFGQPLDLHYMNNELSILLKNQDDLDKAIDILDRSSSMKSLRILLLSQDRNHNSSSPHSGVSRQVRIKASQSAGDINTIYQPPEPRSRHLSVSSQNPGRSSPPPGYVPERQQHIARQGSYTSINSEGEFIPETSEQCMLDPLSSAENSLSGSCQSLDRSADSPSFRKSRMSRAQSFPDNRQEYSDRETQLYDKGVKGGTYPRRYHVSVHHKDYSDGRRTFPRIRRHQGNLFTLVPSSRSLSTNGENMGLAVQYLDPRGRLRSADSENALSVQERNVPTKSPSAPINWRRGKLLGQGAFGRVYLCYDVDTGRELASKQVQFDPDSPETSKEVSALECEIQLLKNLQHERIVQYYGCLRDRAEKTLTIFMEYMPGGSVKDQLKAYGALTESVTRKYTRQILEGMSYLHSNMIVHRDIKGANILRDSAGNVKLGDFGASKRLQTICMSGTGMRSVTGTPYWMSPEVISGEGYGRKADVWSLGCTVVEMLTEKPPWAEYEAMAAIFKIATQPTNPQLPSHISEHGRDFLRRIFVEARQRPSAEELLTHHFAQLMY
# GalR3 antag = human GalR3 antagonism; HEK293 GalR3-CNG cAMP membrane potential fluorescence; galR3 body fused to GalR1 C-terminus; 360,000 tested, 0.44% active; inhibition, % at 3 µM; AID 651719; O60755;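 active = inhibition above the screen-wide average plus 3 SD, cut at about 13% in these data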;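 also: forskolin and galanin both at EC90 stimulate the cells; cAMP rise reported by CNG channel membrane potential dye signal; 0% = forskolin plus galanin with DMSO and 100% = forskolin alone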
# MEKK2 mut-MEK5 = signal of MEK5 binding to mutant human MEKK2 PB1 domain | bead flow cytometry, Alexa488-MEK5 binding to MEKK2 mutant | percent response, % at 10 µM | 290,000 tested, 0.35% active | AID 1530; in the data active = percent response above about 24%, passing the limit was not always enough; also: inactives centre near 1; some results filed as inactive read as strong as hits; reference of the scale not given here
# MEKK2 WT-MEK5 = raises or lowers MEK5 binding to wildtype human MEKK2 PB1 domain; bead flow cytometry, Alexa488-MEK5 binding to MEKK2 WT; actives lie on both sides; 290,000 tested, 1.1% active; AID 1531; binding response (% of control), % at 10 µM; in the data active = binding response below about 67% or above about 130%
# NALP1 yeast inh = blocks the NALP1 inflammasome reconstituted in yeast. inhibition, % at 10 µM. 280,000 tested, 0.61% active. S. cerevisiae NALP1/ASC/caspase-1 growth, X-gal OD620, 72 h; in the data active = inhibition mostly above about 24%, no sharp cut-off; inactive = mostly below about 32%; also: some compounds called inactive have numbers as strong as hits
# An asterisk follows results filed as active; · = no result given; & = joins results of further samples. Not all compounds are listed; count on the stated rates, not on these rows.
No. | smiles | MEKK3 PB1 HTS | GalR3 antag | MEKK2 mut-MEK5 | MEKK2 WT-MEK5 | NALP1 yeast inh
1 | O=C(O)COCCN1CCN([C@H](c2ccccc2)c2ccc(Cl)cc2)CC1 | 102&103 | · | 0&-2 | 106&93 | 17
2 | COc1ccccc1C1CC(c2ccc(Cl)cc2)Nc2ncnn21 (stereo not given) | 98 | -5 | -1 | 97 | 6
3 | CN1C2CC(OC(=O)C(CO)c3ccccc3)CC1C1OC12 (stereo not given) | 102&101 | 2&-3&5 | 6&-1 | 109&104 | 10&7
4 | O=C(c1ccco1)N1CCN(S(=O)(=O)c2ccc(S(=O)(=O)NC3CCCCC3)cc2)CC1 | 99 | -1 | -3 | 96 | -3
5 | Cc1ccc(C2C3=C(NCCN=C3c3ccccc3)C(=O)N2c2ccccc2)cc1 (stereo not given) | 100 | -13 | 3 | 110 | 6
6 | CC(C)[N+]1(C)[C@@H]2CC[C@@H]1CC(OC(=O)C(CO)c1ccccc1)C2 (stereo not given in full) | · | -3 | · | · | ·
7 | CC(C)(C(=O)O)c1ccc(C(O)CCCN2CCC(C(O)(c3ccccc3)c3ccccc3)CC2)cc1 (stereo not given) | 100 | · | 4 | 108 | ·
8 | COCCN=C1N[C@@H](c2cccc(C(F)(F)F)c2)C(C(=O)OC)=C(C)N1Cc1ccccc1 | 103 | -5 | 12 | 114 | 33
9 | O=C(c1ccc(Cl)c(S(=O)(=O)N2CCCCCC2)c1)N1CCCCC1 | 102 | -2 | 0 | 99 | 0
10 | C[C@H](C(=O)O)c1cccc(C(=O)c2ccccc2)c1 | · | -4 | · | · | ·
11 | Cc1nn(CC(=O)O)c(C)c1Cl | 102 | 1 | 0 | 101 | 14

# Given with two lines to a compound: part of the list above.
# Values run as follows: MEKK3 PB1 HTS | GalR3 antag | MEKK2 mut-MEK5 | MEKK2 WT-MEK5 | NALP1 yeast inh
(9) O=C(c1ccc(Cl)c(S(=O)(=O)N2CCCCCC2)c1)N1CCCCC1
  102 | -2 | 0 | 99 | 0
(10) C[C@H](C(=O)O)c1cccc(C(=O)c2ccccc2)c1
  · | -4 | · | · | ·

# Given with each value named: entries from further up.
[3] CN1C2CC(OC(=O)C(CO)c3ccccc3)CC1C1OC12 (stereo not given)
  MEKK3 PB1 HTS: 102&101	GalR3 antag: 2&-3&5	MEKK2 mut-MEK5: 6&-1	MEKK2 WT-MEK5: 109&104	NALP1 yeast inh: 10&7

[4] O=C(c1ccco1)N1CCN(S(=O)(=O)c2ccc(S(=O)(=O)NC3CCCCC3)cc2)CC1
  MEKK3 PB1 HTS: 99	GalR3 antag: -1	MEKK2 mut-MEK5: -3	MEKK2 WT-MEK5: 96	NALP1 yeast inh: -3

[5] Cc1ccc(C2C3=C(NCCN=C3c3ccccc3)C(=O)N2c2ccccc2)cc1 (stereo not given)
  MEKK3 PB1 HTS: 100	GalR3 antag: -13	MEKK2 mut-MEK5: 3	MEKK2 WT-MEK5: 110	NALP1 yeast inh: 6

[6] CC(C)[N+]1(C)[C@@H]2CC[C@@H]1CC(OC(=O)C(CO)c1ccccc1)C2 (stereo not given in full)
  MEKK3 PB1 HTS: ·	GalR3 antag: -3	MEKK2 mut-MEK5: ·	MEKK2 WT-MEK5: ·	NALP1 yeast inh: ·

# High-throughput results from PubChem BioAssay.
